Compound activity (PubChem BioAssay)
Mtb betalactam: beta-lactam sensitization of Mtb H37Rv, H37Rv; inhibition, % at 25 µM; AID 434955, 2010; M. tuberculosis H37Rv growth with meropenem, percent inhibition; hits of this screen are not shown here; 330,000 tested, 0.27% active;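 active means about 74% or more and at least 40 points above the plate without the antibiotic, then above 30% in a dose series; inconclusive means first-round hits that could not be retested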;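 further: growth measured after seven days incubation then overnight dye step; 0% = bacteria only wells and 100% = bacteria with antibiotic; twin plates without the antibiotic show which effects depend on it; some results filed as inactive read as strong as hits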
* marks the source's active call; other numbers are inactive results; ? = inconclusive. The list is partial; count on the stated rates, not on these rows.

The opening 20 entries, to show the layout:
SMILES	Mtb betalactam
Cc1ccc(S(=O)(=O)N2CCN(Cc3ccccc3)CC2)s1	0
C[C@@H]1NC(=O)OC1c1ccco1 (some centres undefined)	-3
CC(NC(=O)COC(=O)CNS(=O)(=O)/C=C/c1ccccc1)c1ccccc1 (centres undefined)	1
CCC1(c2ccccc2)NC(=O)N(CC(=O)Nc2cccc(S(=O)(=O)N3CCCC3)c2)C1=O (centres undefined)	-11
COc1ccc(N2CCN(C(=O)CN3C(=O)NC(C)(c4ccc5ccccc5c4)C3=O)CC2)cc1 (centres undefined)	56
Cc1cccc(C(=O)Nc2cc(NC(=O)c3cccs3)ccc2C)c1	-4
CN(C(=O)Cn1cnc2sccc2c1=O)C1CCCCC1	-8
c1cc(-c2cc3cc4c(cc3cn2)OCO4)cs1	5
COc1ccc(NS(=O)(=O)c2cc(NC(=O)c3cncc(Br)c3)ccc2OC)cc1	-2
O=C(Nc1ccc(O)cc1C(=O)O)c1ccc(NC(=O)c2ccco2)cc1	-12
COc1ccc(/C=C/C(=O)OCC(=O)NC2CCCC2)cc1	3
O=C(NCCOc1ccccc1F)C1CC(=O)N(Cc2ccccc2)C1 (centres undefined)	-1
Cc1ccc(C(=O)Nc2cc(S(=O)(=O)N3CCOCC3)ccc2N2CCCC2)cc1	-4
Cc1cc(=O)[nH]c(SCC(=O)Nc2c(C)n(C)n(-c3ccccc3)c2=O)c1C#N	-9
O=C(NC1CCCC1)C(c1c(F)cccc1Cl)N(C(=O)c1csnn1)C1CC1 (centres undefined)	-6
CC(N)C(=O)NC(C(=O)N1CCCC1C(=O)NC(c1ccccc1)c1ccccc1)C(C)C (centres undefined)	-9
O=C(CCN1C(=O)CSc2ccccc21)Nc1ccc(C(F)(F)F)cc1	-3
COCC(C)n1c(SCC(=O)N2CCOCC2)nc2ccccc2c1=O (centres undefined)	3
O=C(COC(=O)CNC(=O)C1CCCCC1)Nc1cccc(F)c1	-5
COc1ccc(C=Nc2cccnc2N)cc1	-1

Results (from the top)
SMILES	Mtb betalactam
Cc1ccc(S(=O)(=O)N2CCN(Cc3ccccc3)CC2)s1	0
C[C@@H]1NC(=O)OC1c1ccco1 (some centres undefined)	-3
CC(NC(=O)COC(=O)CNS(=O)(=O)/C=C/c1ccccc1)c1ccccc1 (centres undefined)	1
CCC1(c2ccccc2)NC(=O)N(CC(=O)Nc2cccc(S(=O)(=O)N3CCCC3)c2)C1=O (centres undefined)	-11
COc1ccc(N2CCN(C(=O)CN3C(=O)NC(C)(c4ccc5ccccc5c4)C3=O)CC2)cc1 (centres undefined)	56
Cc1cccc(C(=O)Nc2cc(NC(=O)c3cccs3)ccc2C)c1	-4
CN(C(=O)Cn1cnc2sccc2c1=O)C1CCCCC1	-8
c1cc(-c2cc3cc4c(cc3cn2)OCO4)cs1	5
COc1ccc(NS(=O)(=O)c2cc(NC(=O)c3cncc(Br)c3)ccc2OC)cc1	-2
O=C(Nc1ccc(O)cc1C(=O)O)c1ccc(NC(=O)c2ccco2)cc1	-12
COc1ccc(/C=C/C(=O)OCC(=O)NC2CCCC2)cc1	3
O=C(NCCOc1ccccc1F)C1CC(=O)N(Cc2ccccc2)C1 (centres undefined)	-1
Cc1ccc(C(=O)Nc2cc(S(=O)(=O)N3CCOCC3)ccc2N2CCCC2)cc1	-4
Cc1cc(=O)[nH]c(SCC(=O)Nc2c(C)n(C)n(-c3ccccc3)c2=O)c1C#N	-9
O=C(NC1CCCC1)C(c1c(F)cccc1Cl)N(C(=O)c1csnn1)C1CC1 (centres undefined)	-6
CC(N)C(=O)NC(C(=O)N1CCCC1C(=O)NC(c1ccccc1)c1ccccc1)C(C)C (centres undefined)	-9
O=C(CCN1C(=O)CSc2ccccc21)Nc1ccc(C(F)(F)F)cc1	-3
COCC(C)n1c(SCC(=O)N2CCOCC2)nc2ccccc2c1=O (centres undefined)	3
O=C(COC(=O)CNC(=O)C1CCCCC1)Nc1cccc(F)c1	-5
COc1ccc(C=Nc2cccnc2N)cc1	-1
Cn1c(=O)c2c(ncn2CC(=O)OCCCC(=O)c2ccc(Br)cc2)n(C)c1=O	-3
C=CC[C@H](CC(=O)NCCO)C(=O)NCCOC(=O)[C@@H](CC=C)CC(=O)OC(C)(C)C	0
CCN1C(=O)[C@H]2[C@@H](c3ccc(-c4cc(C(C)=O)cs4)cc3)N3CCC[C@@]3(C(=O)OC)[C@H]2C1=O	-5
O=C(CNc1cccc(S(=O)(=O)N2CCCCCC2)c1)Nc1cccc([N+](=O)[O-])c1	-4
Cc1ccccc1OCC(=O)NNC(=O)C1CC(=O)N(c2ccc3c(c2)OCCO3)C1 (centres undefined)	-5
Cc1ccc(NC(=O)COC(=O)c2nn(-c3ccc(Cl)cc3)cc2O)cc1	5
C[C@H](CO)N1C[C@H](C)[C@@H](CN(C)C(=O)Nc2ccc(C(F)(F)F)cc2)Oc2c(NC(=O)C3CCCCC3)cccc2C1=O	5
COc1ccccc1NS(=O)(=O)c1cc(NC(=O)C(C)NC(N)=O)ccc1N1CCCC1 (centres undefined)	-12
CN(CC(=O)Nc1ccc(Cl)c(C(F)(F)F)c1)C(=O)C1CC(=O)N(C2CCCC2)C1 (centres undefined)	-2
O=C(CC1CC2CCC1C2)N1CCN(S(=O)(=O)c2ccccc2[N+](=O)[O-])CC1 (centres undefined)	-10
CC1CCCN(S(=O)(=O)c2cccc(C(=O)NCc3ccco3)c2)C1 (centres undefined)	-5
CCN(C[C@H]1N[C@@](Cc2ccccc2)(C(=O)OC)[C@H]2C(=O)N(Cc3ccccc3)C(=O)[C@@H]12)C(=O)COc1ccccc1	-2
C=CC[C@H](CC(=O)N[C@H](CO)Cc1ccccc1)C(=O)N[C@H](COC(=O)[C@@H](CC=C)CC(=O)OC(C)(C)C)Cc1c[nH]c2ccccc12	2
C[C@H](CO)N1C[C@H](C)[C@@H](CN(C)S(=O)(=O)c2ccccc2)Oc2ccc(NC(=O)Nc3ccc4c(c3)OCO4)cc2C1=O	92
COc1ccccc1[C@]1(C)ON(c2ccccc2C(F)(F)F)C1=O	5
O=C(Cc1ccc(S(=O)(=O)N2CCOCC2)s1)OCc1ccc(Cl)cc1	-7
CC(=O)c1ccccc1NC(=O)CSc1nc2ccccc2c(=O)n1CCCN1CCOCC1	-4
Cc1ccc2[nH]c(CCN(C)C)c(CN3CCOCC3)c2c1	-8
O=C(c1ccc2nccnc2c1)N1CCN(c2cccc(C(F)(F)F)c2)CC1	8
CC1=C([N+](=O)[O-])C(c2ccc3c(c2)OCO3)N(C)C(=O)N1C (centres undefined)	-4
CC(C)(C)OC(=O)N[C@@H](C(=O)OC(C)(C)C)c1ccc2ccccc2c1	4
Cc1onc(-c2ccccc2)c1C(=O)NNC(=O)c1ccccc1Br	-8
O=C(NCc1ccccc1)C1CCN(C(=O)Cc2ccccc2)CC1	?
CCCCN(CCO)CCCC	-3
CCOc1cc(N2CCOCC2)c(OCC)cc1NC(=O)C1CC(=O)N(c2ccccc2OCC)C1 (centres undefined)	-6
O=C(CCc1ccccc1)NCCCNC(=O)CCc1ccccc1	-9
CN(Cc1nc2ccccc2c(=O)[nH]1)C(=O)c1cc2c(s1)CCCCC2	85
CSCc1c(C(=O)N2CCCc3ccccc32)oc2ccccc12	1
Cc1ccc(NC(=O)COC(=O)COc2ccc3ccc(=O)oc3c2)cc1[N+](=O)[O-]	-6
O=C(C[C@@H]1C/C=C\CCCC(=O)OC[C@@H]2CCCN2C1=O)NCCO	3
O=C(COC(=O)c1cccnc1Cl)Nc1cccc(S(=O)(=O)N2CCOCC2)c1	-11
COc1cccc(N(CC(=O)NC2CCCC2)C(=O)Cn2nnc(-c3ccc(C)o3)n2)c1	-4
O=C(Nc1ccc(N2CCOCC2)cc1)c1ccc(COc2ccccc2)cc1	-1
CC(=O)c1cccc(NC(=O)COC(=O)CC2CC3CCC2C3)c1 (centres undefined)	2
CCN1C(=O)[C@H]2[C@@H](c3ccc(-c4ccc(C(C)=O)cc4)cc3)N[C@@](C)(C(=O)OC)[C@H]2C1=O	2
O=C1NC(=O)/C(=C/c2ccco2)N1	-5
O=C(COC(=O)c1ccccc1O)NC12CC3CC(CC(C3)C1)C2	85
CCCN(C(=O)Cc1coc2cc(OC)ccc12)C1CCS(=O)(=O)C1 (centres undefined)	3
CC(=O)Nc1ccc(S(=O)(=O)N(C)c2ccc(OCCOc3cccc(C)c3)cc2)cc1	3
O=C(Cn1ncc(Cl)c(Cl)c1=O)c1ccc2c(c1)OCCO2	94
New compounds follow:
SMILES	Mtb betalactam
COCc1c(C(=O)NCc2ccccc2CN2CCCC2)oc2ccccc12	0
COCC(C)n1c(C)cc(C(=O)CN2c3cccc4cccc(c34)S2(=O)=O)c1C (centres undefined)	3
CC(C)(C)c1ccc(-c2nnc(SCC(=O)NC3CC3)o2)cc1	75
COc1cc(-c2cc(C(=O)Nc3ccncc3)c3ccccc3n2)cc(OC)c1OC	15
Cc1ccc(CNC(=O)COC(=O)c2cc(=O)[nH]c3ccccc23)cc1	6
O=C(NCCOc1ccccc1F)C1CC(=O)N(c2ccc3c(c2)OCCO3)C1 (centres undefined)	-2
COc1cc(NC(=S)NCCCN2CCOCC2)c(OC)cc1NC(=O)c1ccco1	-1
Cn1cc(C=O)c(-c2ccc3c(c2)OCCCO3)n1	-9
CCN(CC)C(=O)[C@H]1CC(CC(=O)NCc2ccc(OC)c(OC)c2)C(=O)N2CCc3c([nH]c4ccccc34)[C@]12C (some centres undefined)	3
S=C(S)N1CCCC1	-7
CN(CC(=O)NC1CCCC1)S(=O)(=O)c1cccc(Cl)c1	2
Cc1ccc(COC(=O)c2cccc(S(=O)(=O)N3CCCCCC3)c2)cc1	-5
CCN(CC)S(=O)(=O)c1ccc(-n2cnc3cc(C)c(C)cc32)nc1	-9
C[C@H](CO)N1C[C@H](C)[C@@H](CN(C)C(=O)Nc2ccc(C(F)(F)F)cc2)Oc2ccc(NS(=O)(=O)c3cccs3)cc2C1=O	8
C[C@H]1CN([C@@H](C)CO)C(=O)c2cccc(NC(=O)Nc3ccc(F)cc3)c2O[C@@H]1CN(C)Cc1ccc(C(=O)O)cc1	-5
O=C(OCC(=O)N1CCOCC1)c1ccccc1OCc1ccccc1Cl	3
CCCCNc1c(-c2ccc(-c3ccc(OC)cc3)c(OC)c2)nc2ccccn12	93
C[C@H](CO)N1C[C@H](C)[C@@H](CN(C)C(=O)Nc2ccc3c(c2)OCO3)Oc2ccc(NC(=O)CCN3CCOCC3)cc2C1=O	-10
O=[N+]([O-])c1cc(S(=O)(=O)N2CCOCC2)ccc1OCc1cccc(Cl)c1	-4
O=C(CNC(=O)c1ccc(Cl)cc1)NNC(=O)c1ccc(Br)cc1	-10
O=C(NC1CCC(O)CC1)c1cc(-c2ccc(Cl)cc2)nc2ccccc12 (centres undefined)	51
Cc1cc(C)cc(N(CCC#N)C(=O)COC(=O)CCc2c[nH]c3ccccc23)c1	82
O=C(COC(=O)c1ccc2c(c1)OCO2)Nc1ccccc1F	-1
CN(CC(=O)Nc1ccc(F)cc1)C(=O)COC(=O)CNC(=O)c1sc2ccccc2c1Cl	7
C=CCC1(CC=C)CCCN1C(=O)c1cc(COc2cncc(Cl)c2)on1	?
O=C(c1c(O)cc(O)cc1O)C1c2c(cc(O)c3c2O[C@H](c2ccc(O)cc2)[C@@H](O)C3)OC1c1ccc(O)cc1 (some centres undefined)	-10
COc1ccc(S(=O)(=O)c2ccccc2)cc1NS(=O)(=O)c1cccc(C(=O)O)c1	-3
O=C1C=C(c2cnc3ccccc3c2)C[C@@H](c2ccc3c(c2)OCO3)C1	82
CCOC(=O)c1ccccc1NC(=O)COC(=O)C1CC(=O)N(c2ccc3c(c2)OCCO3)C1 (centres undefined)	15
Cc1cccc(/C=N/n2c(-c3ccccc3)n[nH]c2=S)c1O	-7
CC[C@]12CCCN3CCc4c(n(c5ccccc45)C(=O)C1)[C@@H]32	2
CC[C@]1(c2ccccc2OC)ON(c2ccccc2C(F)(F)F)C1=O	9
CCOc1ncccc1C(=O)OCC(=O)NC(=O)c1ccccc1	1
CCOc1ccc(NC(=O)CSc2nnc(C3CC3)n2C2CC2)cc1	-6
Cc1cc(C)cc(NC(=O)COC(=O)c2cccc(S(=O)(=O)N3CCCCC3)c2)c1	-6
CCc1noc(C)c1C(=O)OCC(=O)NCc1ccccc1OC	-2
Cc1ccc(SCC(=O)NC(=O)c2ccccc2Br)c(C)c1	1
O=C(Nc1cc2c(cc1[N+](=O)[O-])OCCO2)c1cccnc1	-1
COc1cc(C(=O)NNC(=O)c2ccccc2OCc2c(C)noc2C)cc(OC)c1OC	-6
Cc1ccc(S(=O)(=O)N(C)C)cc1NC(=O)c1ccccc1SCC(=O)N1CCCC1	2
O=C(Nc1ccccn1)C1CCN(S(=O)(=O)c2ccccc2)CC1	-3
COc1ccc(CNC(=O)COC(=O)CCN2C(=O)C3CC=CCC3C2=O)cc1OC (centres undefined)	2
CN1CCC(NC(=O)CCc2ccccc2)CC1	1
COc1ccc2c(=O)cc(CO)oc2c1	-5
CC(=O)Nc1ccc(NC(=O)COC(=O)c2c(-c3ccccc3)noc2C)cc1	-11
NC[C@H](Cc1ccccc1)NCCc1cc(C(F)(F)F)cc(C(F)(F)F)c1	-10
COc1ccc(S(=O)(=O)N2CCOCC2)cc1NC(=O)CSc1nc(C)c(C)c(C)n1	4
COc1ccc(NC(=O)CSc2nc3[nH]c(=O)cc(O)c3s2)cc1OC	2
COc1ccc(CCC(=O)OCC(=O)NC(=O)c2ccc(Cl)cc2)cc1	5
CN(CCOc1ccccc1)C(=O)c1cc(-c2ccco2)nc2ccccc12	2
C/C=C1/C[C@@H](C)[C@](O)(CO)C(=O)OCC2=CCN3CC[C@@H](OC1=O)[C@@H]23	-9
O=C(Cc1coc2cc(O)ccc12)NNC(=O)c1ccc(Br)s1	-7
CS(=O)(=O)N1CCN(c2ccccc2NC(=O)c2ccc3c(c2)OCCO3)CC1	-2
COc1ccc2sc(-c3ccc(SC)cc3)c(-c3ccc(O)cc3)c2c1	30
O=C1C=C(c2ccc(F)cc2OCc2ccccc2)C[C@@H](c2ccc(F)cc2)C1	15
